# gsp ag: gsp mutant agonism | gsp mutant cells, cAMP HTRF, 30 min; control for the full effect not named in the record | Potency, µM (highest dose often 76.9 µM), for the others: at the top dose activation (cAMP increase), actives largely listed as activators | 340,000 tested, 0.13% active | AID 624287; active = well fitted activation curve with a large enough effect; inconclusive = small, poorly fitted or top-dose-only effect, or another doubt; inactive = no such curve, though single readings can be large or run the other way; cell line not stated here;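 also: phosphodiesterase inhibitor Ro 20-1724 added with compounds to block cAMP breakdown; potency is read from the fitted curve at half-maximal effect; nearly all actives have a fitted effect of over 60% in size; about a fifth of the inactives were tested at one dose only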
#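 Cells in DMEM/10% FBS with G418 were pretreated with compounds in DMSO plus […] (300 uM stock) for 30 min at 37C. cAMP was measured by HTRF (cAMP-d2 plus anti-cAMP antibody-K) after 30 min at room temperature.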
# ClpP mod: qHTS Assay for Activators of ClpP. ATP-dependent Clp protease proteolytic subunit (Bacillus subtilis (strain 168)), P80244. purified B. subtilis ClpP, FRET peptide cleavage, 20 min. Potency, µM (titrated, usually from 57.5 µM), without a hit: at the highest dose activity change, negative = active. 340,000 tested, 1.9% active. AID 651965, 2013; active = well fitted falling curve with a large enough effect; inconclusive = small, poorly fitted or top-dose-only effect; inactive = no such curve, though single readings can be large or run the other way; also: potency is read from the fitted curve at half-maximal effect; the source files actives as falling curves though it sought activators and does not explain the sign; nearly all actives have a fitted effect of over 65% in size; many hits overshoot -100%
# Target sequence (P80244 whole entry, looked up): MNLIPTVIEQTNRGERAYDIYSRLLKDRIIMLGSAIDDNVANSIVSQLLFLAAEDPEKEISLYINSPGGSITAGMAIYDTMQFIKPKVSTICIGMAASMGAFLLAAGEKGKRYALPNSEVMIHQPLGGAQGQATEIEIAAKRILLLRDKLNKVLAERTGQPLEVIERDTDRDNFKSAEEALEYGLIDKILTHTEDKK
#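 ClpP 10 microg/mL final, pH 8 Tris/KCl buffer with BSA, glycerol, Tween-20; compound pinned in; FRET-FV substrate; RT 20 min; Ex320/Em430; ΔFRET vs ADEP 5.8 microM, DMSO, no enzyme.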
# Sfp PPTase inh: Sfp phosphopantetheinyl transferase inhibition. Biochemical Sfp PPTase activity, qHTS. Potency, µM, without a hit: max response, negative = inhibition, usual class: inhibitors. Q9F4F7. 310,000 tested, 3.5% active; active = well fitted inhibition curve with a large enough effect; inconclusive = small, poorly fitted or top-dose-only effect, or another doubt; inactive = no such curve, though single readings can be large or run the other way;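 also: the enzyme is Sfp with the accession as filed and its product quenches rhodamine fluorescence; potency is read from the fitted curve at half-maximal effect; 0% = enzyme reaction without inhibitor and -100% = no enzyme wells; top concentration of the series not given in the record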
#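 With Hepes-Na pH 7.6 buffer containing 10 mM MgCl2, Sfp (15 nM) modified BHQ-2-YbbR (12.5 uM) using rhodamine-CoA (5 uM). Two reads 30 minutes apart at 525/598 nm yielded each well's rate.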
# Menin-MLL FL inh: inhibitors of human menin-MLL interaction, wild-type MLL peptide; Fluorescence polarization, fluorescein-MLL peptide displacement from menin; FP activity change, % at 61.4 µM; 290,000 tested, under 10 active; inconclusive = falling polarisation curve, or a change in total fluorescence; inactive = total fluorescence flat and polarisation flat or rising; no compound was filed as active; the % refers to the polarisation; negative = inhibition;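 also: % of control where 0% means no effect; inhibitors lower the polarisation; unlabelled MLL peptide was the positive control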
# gsp antagonist: gsp mutant antagonism; gsp-mutant cells, cAMP HTRF, 30 min; control for the full effect not named in the record; Potency, µM (doses to about 76.9 µM), for inactives: at the highest dose activity change, negative = inhibition, usual class: inhibitors; 340,000 tested, 0.4% active; active = falling curve of any shape with a large fitted effect; inconclusive = falling curve, mostly with a smaller effect; inactive = flat or rising curve; cell line not stated here;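 also: intracellular cAMP measured with PDE inhibitor Ro 20-1724 present during compound exposure; potency is read from the fitted curve at half-maximal effect; % is scaled to controls: 0 for no effect and ±100 for the full control effect; nearly all actives have a fitted effect of over 65% in size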
#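 HTRF cAMP measurement after 30 min RT detection following 30 min, 37C compound treatment alongside […] (added as 300 uM solution) in G418-selected cells seeded at 2000/well and grown 16–24 h.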
# TRPV1 potentiator: human TRPV1 potentiation; Q8NER1; TRPV1-expressing cells, Fluo-8 calcium influx, capsaicin EC20 potentiation; host cell line not named in the record; control for the full effect not named in the record; potentiation, % at 8.33 µM; 320,000 tested, 0.02% active; AID 540277; active means potentiation above 80%; inconclusive means 30% to 80%; inactive means below 30%; also: 0% is about no effect
# Target sequence (Q8NER1 whole entry, looked up): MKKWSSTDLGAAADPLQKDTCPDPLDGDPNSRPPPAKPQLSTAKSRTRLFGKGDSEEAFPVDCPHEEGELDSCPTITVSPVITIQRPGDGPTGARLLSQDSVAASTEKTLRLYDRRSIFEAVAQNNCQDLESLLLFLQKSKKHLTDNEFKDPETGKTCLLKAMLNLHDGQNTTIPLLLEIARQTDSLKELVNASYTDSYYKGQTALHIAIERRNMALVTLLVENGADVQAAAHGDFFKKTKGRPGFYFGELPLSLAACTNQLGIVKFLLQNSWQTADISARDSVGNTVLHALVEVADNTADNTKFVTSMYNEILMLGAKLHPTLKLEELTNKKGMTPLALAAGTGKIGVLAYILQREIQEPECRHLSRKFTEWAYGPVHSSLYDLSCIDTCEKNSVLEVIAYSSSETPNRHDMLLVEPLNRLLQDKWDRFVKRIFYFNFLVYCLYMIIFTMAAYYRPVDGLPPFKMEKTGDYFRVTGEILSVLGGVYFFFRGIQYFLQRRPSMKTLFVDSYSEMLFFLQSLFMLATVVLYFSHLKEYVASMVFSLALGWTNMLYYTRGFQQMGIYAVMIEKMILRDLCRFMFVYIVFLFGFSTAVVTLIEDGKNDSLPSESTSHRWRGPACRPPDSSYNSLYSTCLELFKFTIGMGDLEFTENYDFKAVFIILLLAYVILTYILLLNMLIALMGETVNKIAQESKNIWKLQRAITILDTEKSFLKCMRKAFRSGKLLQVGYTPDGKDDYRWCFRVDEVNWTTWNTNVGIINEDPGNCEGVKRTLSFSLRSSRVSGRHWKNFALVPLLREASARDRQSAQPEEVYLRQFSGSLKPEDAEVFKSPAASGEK
#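 Cells expressing TRPV1 were dye-loaded with Fluo-8 and read kinetically: 10 s baseline, 3 min after compound (agonist portion), then 2 min after EC20 capsaicin (allosteric enhancer portion). Calcium-bound dye fluorescence at 480/520 nm.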
# TRPML1 inh: human mucolipin-1 channel inhibition | Q9GZU1 | activity change, negative = inhibition, % (no concentration beside the values) | 390,000 tested, 0.02% active | TRPML1-inducible cells, Ca2+ dye fluorescence, FDSS; stronger effect = lower value; inhibition of EC80 agonist-evoked calcium signal | AID 624415; in the data active means activity change below about -50%; inconclusive means about -30% to -50%; inactive means above about -30%;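 also: stimulus is agonist 54-4 at its EC80 concentration; % is scaled to controls: 0 for no effect and ±100 for the full control effect; compound concentration not given in the record; the text of the record puts the active cut at -80%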
#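 Calcium fluorescence in TRPML1-DL cells induced overnight with Tet: a 110 s read after compound pin addition, then a 110 s antagonist read after challenge with 54-4 at 4 uM final (EC80).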
# Numbers without * were called inactive; ? = inconclusive; nt = not tested or not shown; & = joins results of further samples; [ ] = remark or other dose.
# Every second line gives: gsp ag, ClpP mod, Sfp PPTase inh, Menin-MLL FL inh, gsp antagonist, TRPV1 potentiator, TRPML1 inh
> O=C(Cn1cnc2ccccc2c1=O)N1CCN(Cc2ccccc2)CC1
    3%, 20µM*, 16%, -0.1, 2%, -7, 3
> Cn1c2ccccc2c2nnc(SCC(=O)NCc3ccoc3)nc21
    13%[15.4 µM], nt, 11%, -8.2, 9%, 4, -4
> CCOc1ccccc1NC(=O)CC1NCCNC1=O (stereo not drawn)
    1%, 0.3%, 0%, 2.2, 2%, 5, -17
> Cc1cc(OCC(=O)NCCO)cc(C)c1Cl
    -4%, -1.2%, -11%, 0.5, -1%, -12, 5
> C=CCc1ccc(O)c(-c2cc(CC=C)ccc2O)c1
    -26%, 4.3%, -11%&16%&1%, 0.9&-0.2&2.0, -9%, 5, -2
> COc1cc(CNCCc2c[nH]c3ccccc23)ccc1OCc1ccccc1F
    -26%, -2.1%, ?, 1.0, 8%, -11, 16
> Cc1ccc(S(=O)(=O)N2CCN(c3ccccc3)CC2)cc1C(N)=O
    26%, nt, 21%, -0.8, 0%, 4, 15
> C=CCn1c(SCC(=O)NC2CCCC2)nc2sc(C)cc2c1=O
    -25%[15.4 µM], nt, nt, nt, 1%, -31, 28
> CCOc1ccc(Cl)cc1/C=C1/C(=O)ON=C1C
    -1%, nt, 50µM*, -14, 7%, 23, -5
> Nc1nc(SCC(=O)c2ccc(Oc3ccccc3)cc2)n[nH]1
    9%, -2.0%, 50µM*, 0.8, -14%, -19, -10
> C[C@@H]1CN([C@H](C)CO)C(=O)CCCn2nncc2CO[C@H]1CN(C)Cc1cccc(C(=O)O)c1
    -1%, 0.5%, nt, nt, nt, nt, 27
> O=S(=O)(c1ccc(Cl)cc1)N1CCN=C1SCc1cccnc1
    -74%[inhibitor], 0.3%, 7%, 2.4, -1%, 3, -7
> O=C(CSC1=NCCN1)Nc1cccc([N+](=O)[O-])c1
    13%[15.4 µM], nt, -10%, 0.3, 5%, -1, 13
> CCSc1nnc(NC(=O)C2CCN(C(=O)c3ccc(F)cc3)CC2)s1
    ?, 0.5%, nt, nt, -3%, nt, -11
> c1ccc(-c2sc3ccccc3c2-c2ccc(OCCN3CCCCC3)cc2)cc1
    -27%, -15%, nt, nt, 7%, nt, 9

# Single records (already shown). Values in the order: gsp ag, ClpP mod, Sfp PPTase inh, Menin-MLL FL inh, gsp antagonist, TRPV1 potentiator, TRPML1 inh
# `C[C@@H]1CN([C@H](C)CO)C(=O)CCCn2nncc2CO[C@H]1CN(C)Cc1cccc(C(=O)O)c1` is listed with -1%, 0.5%, nt, nt, nt, nt, 27
# `CCSc1nnc(NC(=O)C2CCN(C(=O)c3ccc(F)cc3)CC2)s1` is listed with ?, 0.5%, nt, nt, -3%, nt, -11
# `c1ccc(-c2sc3ccccc3c2-c2ccc(OCCN3CCCCC3)cc2)cc1` is listed with -27%, -15%, nt, nt, 7%, nt, 9
# `O=C(CSC1=NCCN1)Nc1cccc([N+](=O)[O-])c1` is listed with 13%[15.4 µM], nt, -10%, 0.3, 5%, -1, 13

# The main list resumes, repeating the 7 entries before the break.
# Every second line gives: gsp ag, ClpP mod, Sfp PPTase inh, Menin-MLL FL inh, gsp antagonist, TRPV1 potentiator, TRPML1 inh
> CCOc1ccc(Cl)cc1/C=C1/C(=O)ON=C1C
    -1%, nt, 50µM*, -14, 7%, 23, -5
> Nc1nc(SCC(=O)c2ccc(Oc3ccccc3)cc2)n[nH]1
    9%, -2.0%, 50µM*, 0.8, -14%, -19, -10
> C[C@@H]1CN([C@H](C)CO)C(=O)CCCn2nncc2CO[C@H]1CN(C)Cc1cccc(C(=O)O)c1
    -1%, 0.5%, nt, nt, nt, nt, 27
> O=S(=O)(c1ccc(Cl)cc1)N1CCN=C1SCc1cccnc1
    -74%[inhibitor], 0.3%, 7%, 2.4, -1%, 3, -7
> O=C(CSC1=NCCN1)Nc1cccc([N+](=O)[O-])c1
    13%[15.4 µM], nt, -10%, 0.3, 5%, -1, 13
> CCSc1nnc(NC(=O)C2CCN(C(=O)c3ccc(F)cc3)CC2)s1
    ?, 0.5%, nt, nt, -3%, nt, -11
> c1ccc(-c2sc3ccccc3c2-c2ccc(OCCN3CCCCC3)cc2)cc1
    -27%, -15%, nt, nt, 7%, nt, 9
> Cc1cccn2c(=O)c(C=NCc3ccco3)c(Nc3ccc(SC(F)F)cc3)nc12
    20%, 1.5%, 11%, 3.2, -2%, 4, 6
> COC(=O)N1CC(c2ccccc2)CC1=O (stereo not drawn)
    0%, 1.2%, 11%, ?, 8%, -11, 23
> CCN1CCc2c(C#N)c(NCc3ccccc3)nc(NCCO)c2C1
    3%, ?, -13%, ?, 3%, 12, -14
> Cc1cccc(N2CCN(C(=O)CCS(=O)(=O)c3ccc4c(c3)NC(=O)CO4)CC2)c1C
    -21%, 0.3%, 3%, 4.5, 32µM*, -11, -13
> O=C(CN1CCN(c2ccc(F)cc2)CC1)Nc1cccc(C(F)(F)F)c1
    11%, -3.9%, 2%, -0.1, -2%, 6, 24
> COCCNC(=O)c1ccc(N2CCC3(CC2)OCCO3)c([N+](=O)[O-])c1
    2%, 0.6%, -6%, 1.0, -13%, 0, 11
> CCN(CC(=O)Nc1ccc2c(c1)OCCO2)C(=O)/C=C/c1ccc(F)cc1
    -20%, -1.7%, 10%, -7.2, -6%, -13, 4
> CCc1nc(SCCO)c2oc3ccccc3c2n1
    6%, -1.7%, 10%, 3.5, 2%[15.4 µM], -8, 15
> Cc1cc(S(=O)(=O)N2CCCCC2)c(C)s1
    -28%, 1.1%, 7%, -0.8, 11%, -4, 44
> Cc1cccc(Cn2c(=O)c3c(nc4n3CCN4Cc3ccco3)n(C)c2=O)c1
    -50%[inhibitor], -0.6%, -4%, 6.5, -30%, -16, -2
> O=C(c1cnccn1)N(c1ccccc1)C1(C(=O)NC2CCCC2)CCCCC1
    -1%, 0.0%, 15%, -0.4, -4%, -6, 4
> Cc1cc(C(=O)CCC(=O)N(C)CC2COc3ccccc3O2)c(C)s1 (stereo not drawn)
    -45%[inhibitor], 1.5%, nt, nt, nt, nt, -3
> CCOc1cc2[nH]c(=O)n(CC3CCC(C(=O)NCCCOC)CC3)c(=O)c2cc1OCC (stereo not drawn)
    -12%, ?, 18%, 3.3, 24%, -1, 4
> CC1CC(C)CN(S(=O)(=O)c2ccc(NC(=O)c3ccc(=O)[nH]c3)cc2)C1 (stereo not drawn)
    1%, 3.2%, nt, nt, 24%, -7, 13
> COCCNC(=O)c1cccc(OC2CCN(Cc3ccccc3C)CC2)c1
    ?, nt, 13%, 3.0, 7%, -22, 1
> COc1cccc(CNC(=O)Cc2ccc(Br)cc2)c1
    -53%[inhibitor], 1.4%, 15%, -4.7, 11%, -24, 4
> Cc1ccc(C2=CC(c3ccc(N(C)C)cc3)n3nnnc3N2)cc1 (stereo not drawn)
    -53%[inhibitor], -5.0%, -14%, ?, -18%, nt, 9
> COc1cc(NC(=O)c2cccs2)c(OC)cc1NC(=O)Nc1ccc(F)cc1
    -1%, nt, 11%, -3.0, ?, -12, 4
> CN(C)c1cccc(C(=O)NCC(c2ccco2)N(C)C)c1 (stereo not drawn)
    36%, nt, 15%, 1.2, -6%, -4, -6
> COc1ccc(OCC(=O)NNC(=O)C(=O)Nc2ccccc2)cc1
    -29%, -2.1%, nt, nt, -5%, nt, -18
> Cc1nn(C)c(C)c1S(=O)(=O)N(CC(=O)Nc1nccs1)c1ccc(C(C)C)cc1
    -33%[inhibitor], 1.0%, 11%, 4.2, 4%, 21, 7
> COc1ccc2oc3cc(C)[n+]([O-])c(-c4ccc(Cl)cc4)c3c2c1
    -7%, -7.1%, 18%, 0.7, -1%, -11, -2
> Cc1cccc(-n2[nH]c3c4c(ccc3c2=O)C(=O)c2ccccc2C4=O)c1
    -3%, -2.1%, 10%, 0.1, ?, 8, 37
> Cc1cc(/C=C2/NC(=O)NC2=O)c(C)n1-c1cccnc1
    -16%[15.4 µM], -0.4%, 6%, 2.4, -2%, -8, 11
> CC(C)Cn1nc(NC(=O)C2CCCO2)c2cc3ccccc3nc21 (stereo not drawn)
    0%, -12%, 5%, 3.7, -12%, 11, 13
> O=S(=O)(NCc1csc(-c2cccnc2)n1)c1ccc(F)cc1
    13%, -6.8%, 13%, 0.8, 16%, -6, 1
> COc1ccc(/C(C#N)=C/c2c(-c3ccc(Cl)cc3)nc3c(C)cccn23)cc1
    14%, 1.3%, 2%, 1.6, 2%, -2, 0
> CCOC(=O)C1(CCCCCCOc2ccc(Cl)cc2)CO1 (stereo not drawn)
    nt, nt, 12%, -0.7, nt, -4, nt
> Cc1ccccc1N1C(=O)c2ccccc2C1Nc1cccnc1 (stereo not drawn)
    -18%, 0.0%, 10%, 1.1, 3%, -6, -2
> Cc1ccc(NC(=O)CCC(=O)c2ccc(Br)cc2)cc1
    15%, 0.8%, 12%, 2.0, -4%, -12, -8
> COc1cc(OC)c(NC(=O)CCNS(=O)(=O)c2ccc3c(c2)oc(=O)n3C)cc1Cl
    1%, -1.7%&2.3%, 12%, 5.1, -1%, 24, -7&-25
> O=C(O)c1cccc(N2C(=O)c3ccc(Oc4ccc(Cl)cc4)cc3C2=O)c1
    -1%[15.4 µM], nt, -9%, 2.1, nt, 9, -2
> CC(=O)Nc1ccc(NC(=O)COC(=O)c2c(C)nn(-c3ccccc3)c2C)cc1
    -22%, -0.6%, 5%, 4.4, -5%, 1, 2
> COc1ccc(C(=O)N/N=C(\C)CC(=O)Nc2ccc3c(c2)OCO3)cc1
    0%[15.4 µM], -2.8%, 4%, 0.1, -2%, -11, 27
> C=CCOc1ccc(/C=C2\SC(N)=NC2=O)cc1OC
    -30%, -5.3%, 9%, ?, -10%, 3, -4
> CC(=O)Nc1ccc(-c2nn[nH]n2)cc1Cl
    -4%, 2.5%, 19%, 6.1, -3%, -27, -10
> O=C(NNC(=O)c1ccc(NC(=O)c2ccccc2)cc1)c1ccc(F)cc1
    18%, -16%, 12%, 0.5, -12%, -4, 1

# Source: PubChem BioAssay
